Source: PubChem
KOR beta-arrestin-1 – KOR antagonists, beta-arrestin recruitment, cell-based, luminescence, uHTS (AID 1778); KOR beta-arrestin recruitment, luminescence, antagonist mode; higher % means a stronger effect; one-dose inhibition, % at 10 µM; IC50 in µM for titrated hits; actives 0.091% (n = 290,000); also: strong numbers were not always called active
KOR beta-arrestin-2 – kappa opioid receptor activators – cell-based, luminescence, uHTS, primary screen (AID 1777); activation, % at 10 µM, or EC50 in µM where a hit was titrated; actives 0.02% (n = 280,000); KOR beta-arrestin recruitment, luminescence; higher % means a stronger effect; in the data active = activation above about 50%, passing the limit was not always enough; also: a part of the inactive calls stands beside numbers as strong as those of hits
NOD1 inhibition – NOD1 signaling inhibitors, primary screen, cell-based, luminescence, uHTS (AID 1578). NOD1-driven NF-kB luciferase reporter cells, luminescence; higher % means a stronger effect. one-dose inhibition, % at 4 µM; EC50 in µM for titrated hits. actives 1% (n = 290,000); in the data active = inhibition mostly above about 36%, no sharp cut-off; inactive = mostly below about 34%;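 also: HEK-293T reporter cells stimulated with the NOD1 agonist gamma-tri-DAP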
HEK293 NOD2/NF-kB – inhibition of NOD2-driven NF-kB reporter – cell-based, luminescence, uHTS, HEK293 (AID 1566) | HEK293 NOD2/NF-kB luciferase reporter, luminescence; higher % means a stronger effect | one-dose inhibition, % at 4 µM; EC50 in µM for titrated hits | actives 0.63% (n = 290,000); also: many of its hits are not listed in these tables
AID2073 – inhibitors of Mint1-CaV2.2 protein interaction, biochemical, HTRF (AID 2073); HTRF protein-protein interaction, Mint1-CaV2.2; higher % means a stronger effect; inhibition, % at 20 µM; hits with a dose series show IC50 in µM; actives 0.19% (n = 290,000); in the data active = inhibition mostly above about 51%, no sharp cut-off; also: some results filed as inactive read as strong as hits
* marks the source's active call; other numbers are inactive results; & = joins results of further samples; [ ] = another dose, or the depositor's remark. Rule as the data show it, unless noted: active = inhibition above about 50%; inactive = the rest. Some of the compounds tested. The share of hits here may be higher or lower than overall.

[1] COc1cccc(C(=O)Nc2cc3c(cc2N2CCCC2)n(C)c(=O)n3C)c1
[2] CC(C)(C)c1ccc(-n2ncc3c2CCCC3NC(=O)CCN2CCCC2=O)cc1 (stereo not given)
[3] COc1cccc(N2CCN(CC(=O)Nc3ccc(-n4cnnn4)cc3)CC2)c1
[4] CN1CCc2cccc3c2C1Cc1ccc(O)c(O)c1-3 (stereo not given)
[5] NCCCC(=O)O
[6] CN[C@H]1CC[C@@H](c2ccc(Cl)c(Cl)c2)c2ccccc21
[7] COc1ccc(Cn2cc(C(=O)O)c(=O)c3ccccc32)cc1
[8] CC(=O)Nc1ccc(Oc2ncccn2)cc1
[9] COc1ccccc1C(=O)NNC(=S)NC(=O)c1ccco1

assay / entry | 1 | 2 | 3 | 4 | 5 | 6 | 7 | 8 | 9
KOR beta-arrestin-1 | 1% | 3% | 6% | -49%[20 µM] | -51% | -99%[20 µM] | 6% | 18% | -4%
KOR beta-arrestin-2 | -1.7% | 2.2% | -0.6% | 0.4% | 3.8% | -2.3%&-1.4% | -3.3% | 2.6% | -12%
NOD1 inhibition | -5% | 13% | -26% | -32% | -4% | 0%&-1% | -38% | 16% | 11%
HEK293 NOD2/NF-kB | 26% | 57%* | 5% | 34% | 3% | 6%&8% | -1% | 21% | 4%
AID2073 | -14% | 5% | 9% | -35% | -3% | 11%&5% | 12% | -6% | -33%

Two compounds drawn at random from those above:
[4] CN1CCc2cccc3c2C1Cc1ccc(O)c(O)c1-3 (stereo not given)
[6] CN[C@H]1CC[C@@H](c2ccc(Cl)c(Cl)c2)c2ccccc21

assay / entry | 4 | 6
KOR beta-arrestin-1 | -49%[20 µM] | -99%[20 µM]
KOR beta-arrestin-2 | 0.4% | -2.3%&-1.4%
NOD1 inhibition | -32% | 0%&-1%
HEK293 NOD2/NF-kB | 34% | 6%&8%
AID2073 | -35% | 11%&5%

Shown with values ahead of the structure: part of the list above
#	KOR beta-arrestin-1	KOR beta-arrestin-2	NOD1 inhibition	HEK293 NOD2/NF-kB	AID2073	compound
3	6%	-0.6%	-26%	5%	9%	COc1cccc(N2CCN(CC(=O)Nc3ccc(-n4cnnn4)cc3)CC2)c1
4	-49%[20 µM]	0.4%	-32%	34%	-35%	CN1CCc2cccc3c2C1Cc1ccc(O)c(O)c1-3 (stereo not given)
5	-51%	3.8%	-4%	3%	-3%	NCCCC(=O)O
6	-99%[20 µM]	-2.3%&-1.4%	0%&-1%	6%&8%	11%&5%	CN[C@H]1CC[C@@H](c2ccc(Cl)c(Cl)c2)c2ccccc21
